# Screening data as filed in PubChem.
# rRNA inh HTS = inhibits bacterial ribosomal RNA function over humanized ribosomes; E. coli WT GFP vs humanized-ribosome RFP mutants, fluorescence, 24 h; hits give low values; DMSO median 0, no signal -100; GFP signal change (wild-type ribosome), % (concentration not given with the values); actives 1.6% (n = 350,000); AID 720706;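 active = significant combined selectivity score with lowered wild-type GFP, culture density cut under 30%, mutant RFP and density less affected; inactive = any of these conditions unmet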; note: one replicate is shown; some compounds called inactive have numbers as strong as hits
# MLL AF4-AF9 inh = MLL-AF4/AF9 protein interaction inhibition; AlphaScreen, biotin-AF4 peptide binding to FLAG-AF9; P42568; actives 0.47% (n = 350,000); inhibition, % at 10 µM; AID 651704;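 active = every replicate reaching a set inhibition limit, whatever the replicate mean, cut at about 25% in these data; inconclusive = mean inhibition reaches that limit but some replicates miss it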;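 note: 0% = plate neutral control median and 100% = total signal loss; the record names both 10 and 1 µM as test concentration; the first replicate is given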
# Target sequence (P42568 whole entry, looked up): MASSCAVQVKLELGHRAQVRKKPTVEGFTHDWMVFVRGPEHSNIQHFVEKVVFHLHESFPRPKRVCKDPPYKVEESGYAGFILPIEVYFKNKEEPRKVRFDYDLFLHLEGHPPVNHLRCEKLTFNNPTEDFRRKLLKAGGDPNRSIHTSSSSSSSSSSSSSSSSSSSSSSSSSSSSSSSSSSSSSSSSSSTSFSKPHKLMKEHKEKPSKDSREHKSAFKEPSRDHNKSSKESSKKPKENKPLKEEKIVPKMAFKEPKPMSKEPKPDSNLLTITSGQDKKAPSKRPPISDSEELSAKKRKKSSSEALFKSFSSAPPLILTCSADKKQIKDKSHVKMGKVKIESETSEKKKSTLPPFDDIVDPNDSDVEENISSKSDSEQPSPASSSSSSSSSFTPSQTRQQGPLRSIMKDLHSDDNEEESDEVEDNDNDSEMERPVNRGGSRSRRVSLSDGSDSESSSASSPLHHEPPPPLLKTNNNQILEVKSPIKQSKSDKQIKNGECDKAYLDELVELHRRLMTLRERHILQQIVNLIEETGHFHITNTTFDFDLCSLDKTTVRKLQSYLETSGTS
# FGF22 binding = binders of recombinant human FGF22 by thermal shift; actives 1.5% (n = 340,000); calls only at 9.99 µM; SYPRO orange fluorescence; percent of sucrose octasulfate shift, DMSO zero;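 active = melting point raised past a set limit in the mean and every replicate; inconclusive = no clear call; three in four hits are not shown here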
# Target sequence (Q9HCT0 whole entry, looked up): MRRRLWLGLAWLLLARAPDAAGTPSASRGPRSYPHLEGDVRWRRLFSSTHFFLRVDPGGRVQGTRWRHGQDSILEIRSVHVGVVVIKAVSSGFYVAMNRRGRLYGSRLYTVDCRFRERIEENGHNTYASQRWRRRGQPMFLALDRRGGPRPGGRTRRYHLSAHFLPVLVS
# HNF4A DNA FP = change in binding of human HNF4 alpha to DNA. actives 0.3% (n = 360,000). HNF4a-FITC DNA binding, fluorescence polarization, 1 h. activity change, % at 10 µM; in the data active = activity change above about 30%, passing the limit was not always enough;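 note: controls were the assay level and a saturating level of protein; the project sought stronger binding though the title names inhibitors; some compounds called inactive have numbers as strong as hits; positive values seem to mean higher polarization but the record does not say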
# ALR H2O2 inh = blocks human ALR sulfhydryl oxidase activity | P55789 | actives 3.8% (n = 290,000) | purified ALR, DTT oxidation, H2O2 HRP-luminol luminescence | inhibition, % (concentration not given with the values);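 active = mean and each replicate at 75% or more; inconclusive = only one of the two met; inactive = neither met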;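 note: stock transfer was 7.5 nL into about 7.5 µL; 0% = neutral wells and 100% = wells with inactivated enzyme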
# Target sequence (P55789 whole entry, looked up): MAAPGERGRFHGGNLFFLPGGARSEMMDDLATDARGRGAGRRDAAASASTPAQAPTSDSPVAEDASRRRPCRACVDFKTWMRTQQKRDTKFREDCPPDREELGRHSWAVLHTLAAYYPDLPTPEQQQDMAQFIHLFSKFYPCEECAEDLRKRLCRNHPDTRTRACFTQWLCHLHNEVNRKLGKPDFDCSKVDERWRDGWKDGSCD
# E coli growth = E. coli growth inhibition | Escherichia coli growth, OD600, 23 h; hits give low values | OD600 absorbance (concentration not given with the values) | actives 0.21% (n = 330,000) | AID 1053175;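 active = OD600 absorbance below the run mean of sample wells minus 3.6 SD, in any replicate, cut at about 0.56 in these data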;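 note: stock transfer was 300 nL into about 60 µL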
# Vif TR-FRET = inhibitors of Vif binding to APOBEC3G peptide, primary screen, biochemical, TR-FRET, GST-Vif 1-94, biotin-A3G peptide, dose response retest (AID 1117319); actives 0.57% (n = 260,000); one-dose inhibition, %; IC50 in µM for titrated hits; TR-FRET GST-Vif / biotin-A3G peptide binding; higher % means a stronger effect; test concentration not given here; strong numbers were not always called active;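 active = above the screen mean plus three standard deviations and confirmed in dose response; inconclusive = results disagree or hit not tested in dose response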;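 note: Vif residues 1-94 fused to GST binding biotinylated APOBEC3G peptide 110-148; 0% = full assay without inhibitor and 100% = GST in place of GST-Vif; retest series ran down from 100 µM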
# rRNA inh HTS OD600 = further read-out of rRNA inh HTS, marked with its call; OD600 change, %; measured here: OD600 growth;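 optical density of the mix in the first replicate; 0 = DMSO median and -100 = no signal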
# rRNA inh HTS RFP = recorded beside rRNA inh HTS, whose call it bears; RFP signal change, %; measured here: RFP humanized mutant strains;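 first replicate; 0 = DMSO median and -100 = no signal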
# * hit, by the source's call; i = inactive; ? = inconclusive; . = not tested or not shown. The list is partial. The share of hits here may be higher or lower than overall.
SMILES,rRNA inh HTS,rRNA inh HTS OD600,rRNA inh HTS RFP,MLL AF4-AF9 inh,FGF22 binding,HNF4A DNA FP,ALR H2O2 inh,E coli growth,Vif TR-FRET
CCOC(=O)C1Nc2ccc(C(F)(F)F)cc2C2c3ccccc3CC12 (centres undefined),-1,11,5.2,0.9,i,1.4,-2,0.79,.
CN(CC(=O)Nc1ccc(C(N)=O)cc1)S(=O)(=O)c1ccc2c(c1)OCCO2,9,9,-0.4,-1.5,i,4.7,.,0.69,3%
CCOc1ccccc1Oc1cn[nH]c1-c1ccc(OC)cc1O,.,.,.,.,.,6.3,59,0.71,-2%
Cc1ccc(CCNC(=O)CCS(=O)(=O)c2ccc3c(c2)oc(=O)n3C)cc1,16,19,3.8,-1.8,i,-2.6,-1,0.7,.
Cc1ccc(-c2nc3c(c(=O)[nH]c(=O)n3CC(C)C)n2CC(C)C)cc1[N+](=O)[O-],20,4,0.3,10,i,-3.0,.,0.72,?
Cc1ccccc1C(=O)NC1CC2CCCC(C1)N2Cc1ccccc1Cl (centres undefined),12,17,-1.5,-2.9,i,0.9,.,.,.
O=C(O)c1ccccc1-n1cnnn1,10,3,-5.4,0.4,i,-4.3,3,0.65,5%
COCC#Cc1ccc([C@@H]2[C@H]3CN(S(=O)(=O)c4cccc(OC)c4)CCCCN3[C@H]2CO)cc1,0,5,-2.0,-2.7,i,.,.,.,.
COCCNC(=O)c1ccccc1-c1nc(-c2ccccc2Cl)no1,.,.,.,.,.,3.5,2,0.78,3%
OCCOCCn1c(C(CO)Nc2nc(-c3ccc(Cl)cc3)cs2)nc2ccccc21 (centres undefined),-24,-58,13,.,i,2.0,95*,0.7,.
CCn1c(SCC(=O)N(C)CCC#N)nc2cc(S(=O)(=O)N3CCOCC3)ccc21,9,15,1.8,-5.1,i,-0.6,.,0.69,-2%
C[C@H](CO)N1C[C@H](C)[C@@H](CN(C)Cc2ccccc2)Oc2ccc(NC(=O)C3CCCCC3)cc2C1=O,-1,0,0.6,-0.1,i,.,.,.,.
Fc1ccc(-c2csc(Nc3ccccn3)n2)cc1,1,10,-0.9,-0.2,i,-4.5,1,0.67,.
Cc1ccc(N2CC(C(=O)OCc3ccc([N+](=O)[O-])cc3)CC2=O)cc1 (centres undefined),.,.,.,.,.,1.1,-25,0.65,0%
Cc1ccc(CS/C(Nc2ccccc2C)=C(\C#N)C(N)=O)c(C)c1,6,-10,0.8,1.9,i,2.4,21,0.7,11%
O=C(NS(=O)(=O)Oc1ccc(F)cc1F)OC[C@@H]1CCCN2CCCCC12 (some centres undefined),3,14,-0.1,0.7,i,0.8,.,0.68,.
O=C(CCC(=O)c1cccs1)OCC(=O)c1ccccc1F,5,-1,-1.9,-0.6,i,-1.6,.,0.67,-7%
CCOC(=O)/C(=C\c1ccc(Cl)cc1)c1nc2sc(C)c(C)c2c(=O)[nH]1,.,.,.,.,.,-0.3,9,0.68,1%
CCC1CCCCN1C(=O)Cn1c(C(=O)OC)cc2ccsc21 (centres undefined),.,.,.,.,.,0.0,-5,0.69,13%
CCN(C(=O)CSc1nc2nc(C)cc(C)n2n1)c1ccccc1,.,.,.,.,.,-1.0,-1,0.68,-3%
Cc1nn(CC(=O)NC2CCS(=O)(=O)C2)c(C)c1[N+](=O)[O-] (centres undefined),13,7,-1.4,-4.7,i,4.8,0,0.71,-7%
CN(C)c1ccc(C=C2C=C(c3ccccc3)OC2=O)cc1,1,9,23,-8.8,i,55*,.,.,.
Cc1ccc(CNC(=O)Cn2ccc(NC(=O)OCc3ccccc3)nc2=O)o1,.,.,.,.,.,-0.8,2,0.61,.
Cc1cc(C(F)F)nn1CC(=O)NC1C(=O)N2C(C(=O)O)=C(CSc3nnnn3C)CSC12 (centres undefined),9,11,0.3,-8.7,i,-7.0,-1,0.19*,.
C/C=C/c1ccc([C@@H]2[C@@H](CO)N(C(=O)C3CC3)[C@H]2CN(C)C(C)=O)cc1,4,6,-2.4,-2.6,i,.,.,.,.
CC(C)Cn1cc(Cl)c(=O)n(CC(C)C)c1=O,16,15,-11,-2.9,i,0.9,.,0.65,.
CCOc1cc(/C=N/Nc2nncc(-c3ccccc3)n2)ccc1O,0,11,1.8,-1.1,i,1.8,-13,.,.
COc1cc(/C=C2/C(=N)N3N=C(C)SC3=NC2=O)ccc1OS(=O)(=O)c1ccc(C)cc1,-6,-7,2.2,-0.4,i,0.0,16,0.66,.
O=C(CSc1nccc(=O)[nH]1)N1CCc2ccccc2C1,10,9,3.0,-4.1,i,-1.9,-1,0.62,7%
CC1CCCN(CCC(=O)c2ccccc2)C1 (centres undefined),18,7,1.3,1.3,i,1.4,.,0.66,0%
CN(C)c1ccc(CNS(=O)(=O)c2ccc3c(c2)C(C)(C)C(=O)N3C)cc1,2,-9,1.9,-0.3,i,1.6,28,0.76,.
CS(=O)(=O)c1ccc(N)cc1,6,3,0.3,-1.1,i,-0.5,42,0.73,17%
C/C=C/C(=O)OCC(=O)Nc1cc(OC)c([N+](=O)[O-])cc1C,5,-2,0.1,-2.9,i,-3.7,.,0.64,0%
COc1cc(OC)c(N(C)S(=O)(=O)c2cccc(C(=O)Nc3nnc(C4CC4)s3)c2)cc1Cl,-2,-2,1.6,.,i,4.2,.,0.69,.
CCCCn1c(C(C)NC(=O)CCC)nc2ccccc21 (centres undefined),-1,-3,1.0,-9.4,i,-4.0,-19,0.75,15%
COc1cc2c(ccc3cc(OC)c(OC)c(O)c32)cc1O,.,.,.,2.9,i,-48,99*,0.69,.
CC(C)(C)c1cc(CCC(=O)NCC2CCCO2)cc(C(C)(C)C)c1O (centres undefined),-5,-11,-0.8,-0.4,i,0.0,7,0.66,.
CCOCCCNS(=O)(=O)c1ccccc1,.,.,.,.,.,-2.0,-18,0.71,6%
COc1ccccc1C(=O)Nc1c(C(=O)N(CCN(C)C)Cc2ccco2)oc2ccccc12,-40*,-34*,-5.2*,22,i,-0.1,-12,0.71,.
Cc1nn(CC(N)=O)c(=O)c2ccccc12,.,.,.,.,.,-0.7,-13,0.71,-1%
C/C(CC(O)c1ccc2ccccc2n1)=N/O (centres undefined),.,.,.,.,.,-4.3,-1,.,2%
CC(=O)c1ccc(Oc2ccc(C(=O)c3ccc(C)c(C)c3)cc2[N+](=O)[O-])cc1,6,8,-8.2,1.0,i,-5.1,-1,0.66,10%
CCSc1nnc(NC(=O)C2CC2c2ccccc2)s1 (centres undefined),8,3,3.1,1.8,i,-3.0,-11,0.71,3%
CC(=O)c1cc2c(cc1NC(=O)Cc1c(C)noc1C)OCO2,4,4,2.3,-0.8,i,0.5,-6,0.63,-6%
O=C(On1c(-c2ccccc2)nc2ccccc2c1=O)c1ccco1,.,.,.,.,.,-4.3,11,0.69,3%
O=C(CNc1cccc(F)c1)Nc1cccc(S(=O)(=O)N2CCCCC2)c1,0,0,-1.2,10,i,1.3,.,0.69,9%
C[C@H](O)C#Cc1ccc([C@@H]2[C@H]3CN(C(=O)Nc4ccccc4)CCCCN3[C@H]2CO)cc1,2,3,0.2,-13,i,.,.,.,.
Nc1nc(Cl)cc(NCCc2ccccc2)n1,-5,-6,0.6,-6.9,.,.,.,0.67,4%

# Reprinted at random: three entries already listed
SMILES,rRNA inh HTS,rRNA inh HTS OD600,rRNA inh HTS RFP,MLL AF4-AF9 inh,FGF22 binding,HNF4A DNA FP,ALR H2O2 inh,E coli growth,Vif TR-FRET
CCOCCCNS(=O)(=O)c1ccccc1,.,.,.,.,.,-2.0,-18,0.71,6%
O=C(CNc1cccc(F)c1)Nc1cccc(S(=O)(=O)N2CCCCC2)c1,0,0,-1.2,10,i,1.3,.,0.69,9%
CC(=O)c1ccc(Oc2ccc(C(=O)c3ccc(C)c(C)c3)cc2[N+](=O)[O-])cc1,6,8,-8.2,1.0,i,-5.1,-1,0.66,10%

# (next part)
SMILES,rRNA inh HTS,rRNA inh HTS OD600,rRNA inh HTS RFP,MLL AF4-AF9 inh,FGF22 binding,HNF4A DNA FP,ALR H2O2 inh,E coli growth,Vif TR-FRET
c1ccc(-c2nc3cnccn3c2Nc2ccc3c(c2)OCCO3)cc1,.,.,.,.,.,-0.2,.,0.68,9%
C[C@@H]1CN([C@@H](C)CO)C(=O)c2cccc(NC(=O)CCCCCC(=O)Nc3ccccc3N)c2O[C@@H]1CN(C)Cc1ccc(C(F)(F)F)cc1,-2,-1,3.0,0.3,i,.,.,.,.
CN(C(=O)c1ccc(NC(=O)C2CC=CCC2C(=O)O)cc1)c1ccccc1 (centres undefined),.,.,.,.,.,1.7,-1,0.69,0%
COc1cc(/C=C2\N=C(c3ccccc3)NNC2=O)cc(OC)c1OC,7,13,-0.9,1.2,i,2.2,-9,0.67,.
CC(C(=O)Nc1ccon1)N1C(=O)c2ccccc2S1(=O)=O (centres undefined),3,0,-1.9,-2.1,i,2.0,-1,0.7,1%
COc1ccc(OC)c(/C=N/Nc2nncn2/N=C/c2cc(OC)ccc2OC)c1,.,.,.,.,.,-2.8,-3,.,9%
CCCCNC(=O)C1(C)CCN1C(=O)c1sccc1C (centres undefined),7,8,-2.4,0.3,i,3.0,.,.,.
Cc1ccc(S(=O)(=O)N[C@H]2CC[C@@H](CCn3cc(C4(O)CCCC4)nn3)O[C@@H]2CO)cc1,-4,-1,-1.7,0.2,i,.,.,.,.
CC(C)OC(=O)CN1C(=O)c2ccccc2C1=O,.,.,.,.,.,-2.6,-3,0.67,15%
CC(=O)c1cnc2nc(C)nn2c1C,.,.,.,.,.,-1.7,-8,0.69,16%
CCN(CC(=O)NCc1ccc(F)cc1)C(=O)CCNS(=O)(=O)c1cccc(C)c1,1,-1,2.0,-1.9,i,-0.6,3,0.68,?
COc1cccc(-c2cn3nc4c(nc3n2)CCCC4)c1,.,.,.,.,.,11,-17,.,18µM*
COc1ccccc1N1CCN(CC(O)COCc2cccs2)CC1 (centres undefined),5,5,-0.1,-0.2,i,0.0,34,0.67,?
CCOC(=O)N1CCN(S(=O)(=O)N2CCCC(C(=O)NCc3cc(OC)ccc3OC)C2)CC1 (centres undefined),3,17,-1.0,0.9,i,0.3,.,.,-1%
CCOc1ccc(NC(=O)CN2C(=O)/C(=C3\SC(=S)N(C4CCS(=O)(=O)C4)C3=O)c3ccccc32)cc1 (centres undefined),12,8,2.5,-0.1,i,-0.1,.,0.66,6%
CC(=O)c1c(C)[nH]c(C(=O)NCc2ccc(F)cc2)c1C,3,10,5.3,2.1,.,1.4,-4,0.71,-4%

# Gathered by group, those above containing a CF3 group.
SMILES,rRNA inh HTS,rRNA inh HTS OD600,rRNA inh HTS RFP,MLL AF4-AF9 inh,FGF22 binding,HNF4A DNA FP,ALR H2O2 inh,E coli growth,Vif TR-FRET
CCOC(=O)C1Nc2ccc(C(F)(F)F)cc2C2c3ccccc3CC12 (centres undefined),-1,11,5.2,0.9,i,1.4,-2,0.79,.
C[C@@H]1CN([C@@H](C)CO)C(=O)c2cccc(NC(=O)CCCCCC(=O)Nc3ccccc3N)c2O[C@@H]1CN(C)Cc1ccc(C(F)(F)F)cc1,-2,-1,3.0,0.3,i,.,.,.,.

# HNF4A DNA FP: what is marked active above.
compound	rRNA inh HTS	rRNA inh HTS OD600	rRNA inh HTS RFP	MLL AF4-AF9 inh	FGF22 binding	HNF4A DNA FP	ALR H2O2 inh	Vif TR-FRET
CN(C)c1ccc(C=C2C=C(c3ccccc3)OC2=O)cc1	1	9	23	-8.8	i	55*	.	.
